TRPV1 PAM: enhances activation of the human vanilloid receptor TRPV1. potentiation, % at 8.33 µM. Q8NER1. TRPV1-expressing cells, Fluo-8 calcium influx, capsaicin EC20 potentiation; host cell line not named in the record; control for the full effect not named in the record. 0.02% of 320,000 active; active means potentiation above 80%; inconclusive means 30% to 80%; inactive means below 30%; also: 0% is about no effect
Target sequence (Q8NER1 whole entry, looked up): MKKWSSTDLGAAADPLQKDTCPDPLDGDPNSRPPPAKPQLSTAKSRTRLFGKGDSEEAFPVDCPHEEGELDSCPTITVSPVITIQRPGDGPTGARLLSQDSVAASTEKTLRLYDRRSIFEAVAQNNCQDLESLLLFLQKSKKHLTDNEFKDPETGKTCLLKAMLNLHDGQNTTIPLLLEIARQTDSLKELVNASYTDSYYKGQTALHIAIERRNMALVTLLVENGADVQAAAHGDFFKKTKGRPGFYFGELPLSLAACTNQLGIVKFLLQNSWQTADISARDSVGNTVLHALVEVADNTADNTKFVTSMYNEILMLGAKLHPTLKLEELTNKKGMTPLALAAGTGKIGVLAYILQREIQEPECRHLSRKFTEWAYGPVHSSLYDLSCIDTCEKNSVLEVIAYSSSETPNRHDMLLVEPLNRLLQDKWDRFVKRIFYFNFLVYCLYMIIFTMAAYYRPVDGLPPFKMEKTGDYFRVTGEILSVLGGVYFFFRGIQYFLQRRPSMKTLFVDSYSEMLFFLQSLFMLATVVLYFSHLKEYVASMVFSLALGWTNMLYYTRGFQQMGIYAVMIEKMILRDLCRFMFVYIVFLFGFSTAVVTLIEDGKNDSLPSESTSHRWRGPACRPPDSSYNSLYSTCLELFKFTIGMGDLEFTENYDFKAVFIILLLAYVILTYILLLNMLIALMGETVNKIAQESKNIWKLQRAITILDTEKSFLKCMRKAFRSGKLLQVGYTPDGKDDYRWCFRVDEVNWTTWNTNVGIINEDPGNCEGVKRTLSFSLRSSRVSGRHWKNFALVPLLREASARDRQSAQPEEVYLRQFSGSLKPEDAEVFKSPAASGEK
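TRPV1-expressing cells were cultured overnight at 35.5C and loaded with Fluo-8 calcium dye for 40 to 90 min at room temperature. After a 10 s baseline, compound was added and calcium influx was read kinetically for 3 min (ex 480/em 520 nm).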
ClpP mod: qHTS Assay for Activators of ClpP; ATP-dependent Clp protease proteolytic subunit (Bacillus subtilis (strain 168)), P80244; purified B. subtilis ClpP, FRET peptide cleavage, 20 min; Potency, µM (titrated, usually from 57.5 µM), for the others: top-dose activity change, negative = active; 1.9% of 340,000 active; AID 651965, 2013; active = well fitted falling curve with a large enough effect; inconclusive = small, poorly fitted or top-dose-only effect; inactive = no such curve, though single readings can be large or run the other way; also: potency is read from the fitted curve at half-maximal effect; the source files actives as falling curves though it sought activators and does not explain the sign; nearly all actives have a fitted effect of over 65% in size; many hits overshoot -100%
Target sequence (P80244 whole entry, looked up): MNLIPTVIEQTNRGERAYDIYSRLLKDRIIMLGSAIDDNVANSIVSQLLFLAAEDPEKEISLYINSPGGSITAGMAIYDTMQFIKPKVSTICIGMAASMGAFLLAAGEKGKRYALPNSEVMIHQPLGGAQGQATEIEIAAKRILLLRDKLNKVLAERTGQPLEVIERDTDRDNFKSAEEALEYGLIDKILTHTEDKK
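Purified B. subtilis ClpP, 10 microg/mL final in Tris/HCl pH8 with KCl, BSA, glycerol and Tween-20, cleaved an Abz/nitrotyrosine-quenched decapeptide. Fluorescence (ex 320, em 430) was read at 0 and 20 min at room temperature. Delta was normalized to 5.8 microM ADEP and DMSO/no-enzyme controls.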
Menin MLL FP FL: displaces fluorescein MLL peptide from human menin | Fluorescence polarization, fluorescein-MLL peptide displacement from menin | FP activity change, % at 61.4 µM | 290,000 tested, under 10 active | AID 1766; inconclusive = falling polarisation curve, or a change in total fluorescence; inactive = total fluorescence flat and polarisation flat or rising; no compound was filed as active; the % refers to the polarisation; negative = inhibition;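 also: % of control where 0% means no effect; inhibitors lower the polarisation; unlabelled MLL peptide was the positive control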
CtBP-E1A inh: inhibitors of CtBP/E1A interaction | AlphaScreen GST-E1A/His-CtBP binding, 1536-well; hits give low values; control for the full effect not named in the record | 0.49% of 340,000 active | activity change, % (no concentration beside the values); in the data active means activity change below about -65%; inconclusive means about -30% to -65%; inactive means above about -30%; also: % is scaled to controls: 0 for no effect and ±100 for the full control effect; compound concentration not given in the record
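Protein mix (5X: 125 nM each GST-E1A, His-CtBP) was incubated with pinned compound 2 h at 37 deg C in dark, in 50 mM Tris pH 8.0 buffer with 300 mM NaCl. Glutathione donor and nickel acceptor beads followed; AlphaScreen signal read after 1 h.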
Sfp PPTase inh: Sfp phosphopantetheinyl transferase inhibition; AID 1490; 3.5% of 310,000 active; Potency, µM, for inactives: max response, negative = inhibition, most hits filed as inhibitors; Biochemical Sfp PPTase activity, qHTS; Q9F4F7; active = well fitted inhibition curve with a large enough effect; inconclusive = small, poorly fitted or top-dose-only effect, or another doubt; inactive = no such curve, though single readings can be large or run the other way;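 also: the enzyme is Sfp with the accession as filed and its product quenches rhodamine fluorescence; potency is read from the fitted curve at half-maximal effect; 0% = enzyme reaction without inhibitor and -100% = no enzyme wells; top concentration of the series not given in the record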
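Buffer: 50 mM Hepes-Na pH 7.6, 10 mM MgCl2, 0.01% Nonidet P-40, 0.01% BSA. Enzyme 15 nM, pre-exposed to compound 15 min; substrates then added and fluorescence change tracked over 30 min.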
gsp antag: antagonizes gsp, the McCune-Albright syndrome mutation; 0.4% of 340,000 active; Potency, µM (series often up to 76.9 µM), inactives show at the top dose activity change, negative = inhibition, hits mostly inhibitors; gsp-mutant cells, cAMP HTRF, 30 min; control for the full effect not named in the record; active = falling curve of any shape with a large fitted effect; inconclusive = falling curve, mostly with a smaller effect; inactive = flat or rising curve; cell line not stated here;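 also: intracellular cAMP measured with PDE inhibitor Ro 20-1724 present during compound exposure; potency is read from the fitted curve at half-maximal effect; % is scaled to controls: 0 for no effect and ±100 for the full control effect; nearly all actives have a fitted effect of over 65% in size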
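Measurement of cellular cAMP by homogeneous time-resolved fluorescence following a 30 min compound exposure at 37C. The PDE inhibitor […] was present throughout; the assay buffer was DPBS with 0.05% BSA and 0.005% Tween 20.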
gsp ag: activates gsp, the McCune-Albright syndrome mutation. 0.13% of 340,000 active. AID 624287. gsp mutant cells, cAMP HTRF, 30 min; control for the full effect not named in the record. Potency, µM (highest dose often 76.9 µM), for the others: at the top dose activation (cAMP increase), usual class: activators; active = well fitted activation curve with a large enough effect; inconclusive = small, poorly fitted or top-dose-only effect, or another doubt; inactive = no such curve, though single readings can be large or run the other way; cell line not stated here;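 also: phosphodiesterase inhibitor Ro 20-1724 added with compounds to block cAMP breakdown; potency is read from the fitted curve at half-maximal effect; nearly all actives have a fitted effect of over 60% in size; about a fifth of the inactives were tested at one dose only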
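Cells in DMEM/10% FBS with G418 were pretreated with compounds in DMSO plus […] (300 uM stock) for 30 min at 37C. cAMP was measured by HTRF (cAMP-d2 plus anti-cAMP antibody-K) after 30 min at room temperature.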
* = called active by the depositor; ? = inconclusive; nt = not tested or not shown; & = joins results of further samples; [ ] = remark or other dose.

Under each structure: gsp ag, ClpP mod, gsp antag, CtBP-E1A inh, Menin MLL FP FL, TRPV1 PAM, Sfp PPTase inh
- CC(C)(C)NC(=O)C(c1ccc(F)cc1)N(Cc1ccco1)C(=O)c1csnn1 (stereo not given)
→ 5%, 1.2%, -13%, 4, 2.8, 2, 2%
- O=C(CCn1cnc2ccccc2c1=O)Nc1ccc(Cl)c(Cl)c1
→ 9%, 0.3%, 15%, 5, 3.5, 1, 2%
- CCC(C)[C@H]1CNC(=S)N1CCc1cccc2ccccc12 (stereo not given in full)
→ nt, -1.0%, -11%, -5, 0.2, -36, 1%
- CC(C)(C)c1ccc(C(=O)NCCC(=O)NNC(=O)COc2ccccc2F)cc1
→ 13%[15.4 µM], 2.4%, -1%, 6, nt, nt, nt
- Cn1cc(/C=C/c2cc[n+](C)cc2)c2cc(Cl)ccc21
→ -13%, nt, ?, 11, ?, -15, 3%
- O=C(N/N=C/c1ccc2c(c1)OCO2)c1cc2ccccc2o1
→ 14%, -2.3%, -13%, -11, -0.5, -3, -6%
- COc1cc(OC)c2c(-c3cccc(-c4ccc(N(C)C)cc4)c3)cc(=O)oc2c1
→ nt, 0.6%, 7%, ?, -4.9, nt, -10%
- O=[N+]([O-])c1ccc(N2CCOCC2)cn1
→ 9%, nt, -1%, 22, -0.5, 23, 15%
- CCSc1nsc(NC(=O)Nc2cccc(OC)c2)n1
→ -35%[inhibitor], nt, -27%, -10, 1.2, -8, 10%
- COc1ccc(C2NCCO2)cc1OC (stereo not given)
→ ?, -4.5%, 2%, -1, -0.3, 6, 17%
- COc1ccc(C2CC(c3ccccc3)=NN2C(=O)c2ccc(Cl)c([N+](=O)[O-])c2)cc1 (stereo not given)
→ 11%, -2.1%, -14%, -21, 0.5, 2, -2%
- CCCN1CCN(CCCNC(=O)CCN2C(=O)COc3ccccc32)CC1
→ 10%, 1.3%, 15%, 12, nt, 5, 13%
- Clc1ccc(-c2nc(NCCCN3CCOCC3)c3ccccc3n2)cc1
→ 5%, nt, -3%, 0, -1.2, -9, -5%
- Cc1ccccc1S(=O)(=O)Cc1ccc(C(=O)NCCN2CCN(Cc3ccccc3)CC2)o1
→ 18%, 1.0%, 3%, -2, 0.6, -2, 10%
- Cc1ccc(C(=O)NCc2ccccn2)cc1Cl
→ -22%, 0.4%, 0%, nt, -0.4, -11, 3%
- Cc1cc(C)n(-c2cc(N3CCN(S(=O)(=O)c4ccc(C)c(C)c4)CC3)ccc2[N+](=O)[O-])n1
→ 27%, -7.5%, -12%, 2, -0.9, nt, 20%
- COC(=O)COc1ccc2c(=O)c(-c3ccccc3OC)coc2c1
→ 4%, nt, -18%, -9, 2.3, 3, 13%
- CC1CCN(S(=O)(=O)c2ccc(C(=O)OC(C)C(=O)N(C)C3CCCCC3)cc2)CC1 (stereo not given)
→ 13%[15.4 µM], nt, 2%, -3, nt, -2, nt
- CC1CCCN(C(=O)C2CCN(c3nc(-c4ccccc4)nc4c3CCC4)CC2)C1 (stereo not given)
→ 5%[15.4 µM], -5.0%, ?, -1, nt, -7, 0%
- CC1CCCN(C(=O)c2cccc(S(=O)(=O)NCc3ccccc3)c2)C1 (stereo not given)
→ -4%, -0.7%, nt, 0, nt, nt, nt
- CCCNS(=O)(=O)c1ccc(OCC(=O)N(C)Cc2ccccc2)cc1
→ ?, -1.7%, 0%, -1, 3.6, 8, 11%
- CC(C)CN(C(=O)CN(C)CC(=O)Nc1ccccc1C#N)c1c(N)n(CC(C)C)c(=O)[nH]c1=O
→ 9%, nt, -16%, 1, nt, nt, nt
- COCC(=O)Nc1sc2c(c1C(=O)OC)CCC(C)C2 (stereo not given)
→ 10%, -17%, -16%, 4, 2.2, 6, -18%
- COc1cccc(N2CCN(CC(=O)c3c[nH]c4ccc(OC)cc34)CC2C)c1 (stereo not given)
→ -7%, -0.3%, -6%, ?, -0.6, -1, 13%
- Cc1c(Cc2ccccc2)c(=O)oc2c(C)c(OC(C)C(=O)N[C@@H](Cc3ccccc3)C(=O)O)ccc12 (stereo not given in full)
→ nt, 4.5%, -19%, -6, -0.7, -18, -1%
- Cc1cc(C)c(C(=O)COC(=O)c2ccc([N+](=O)[O-])o2)cc1C
→ -23%[15.4 µM], nt, -10%, nt, 2.7, -28, 1%
- CCOc1ccc(CNC(=O)c2ccc3c(c2)N(CC)CCS3)cc1
→ 6%, 4.7%&4.8%, -21%, -1, -6.9, 2, 11%
- Cc1ccc(CNc2oc(-c3cccs3)nc2C#N)cc1
→ 20%, 13%, 23%, -9, 2.1, ?, 3%
- COCOc1cc(O)c(C(=O)/C=C/c2ccccc2)c(OCOC)c1
→ nt, 4.4%, -8%, 1, nt, nt, nt
- COc1ccc(C(=O)CN2C(=O)NC(C)(c3ccc(C)cc3)C2=O)cc1OC (stereo not given)
→ -47%[inhibitor], -3.9%, 5%, -1, 0.5, -3, 5%

Carrying on:
Under each structure: gsp ag, ClpP mod, gsp antag, CtBP-E1A inh, Menin MLL FP FL, TRPV1 PAM, Sfp PPTase inh
- COC(=O)CCn1nc(-c2ccc(Cl)cc2)c2ccccc2c1=O
→ -9%, -1.2%, -18%, nt, -1.5, -2, 8%
- CC(C)(C)c1ccc(/C=C/C(=O)N2CCc3ccccc3C2)cc1
→ 1%, -0.5%, -24%, 5, 7.2, -13, -17%
- COc1ccc(C2(C)NC(=O)NC2=O)cc1OC (stereo not given)
→ 14%, nt, 11%, 6, -1.4, -3, -2%
- COC(=O)n1ccc(C(=O)Nc2ccccc2F)n1
→ -23%, ?, 7%, 1, 0.1, -12, 13%
- O=C(CCc1nnc(CCCc2ccccc2)o1)NCCN1CCOC1=O
→ -53%[inhibitor], nt, 9%, 3, -0.2, -2, 19%
- COC(=O)CN(c1ccccn1)S(=O)(=O)c1ccccc1
→ -67%[inhibitor], 11µM*, 1%, -2, 1.5, -4, 3%
- Cc1cccc(-c2ocnc2C(=O)Nc2ccccc2C(=O)N2CCCC2)c1
→ -3%[15.4 µM], nt, -2%, -9, -5.2, 0, 0%
- COc1ccccc1CNC(=O)COC(=O)c1cc(=O)c2ccccc2o1
→ 14%, 3.4%, 5%, -1, nt, nt, nt
- COc1cc2c(cc1NC(=O)c1cccnc1)oc1ccccc12
→ -5%, -21%, -23%, 6, 3.4, 11, -29%
- Cc1ccc2nc3sc(C(=O)NCc4ccco4)c(N)c3cc2c1
→ 20%, 1.8%, -7%, -4, ?, 10, 4%
- COc1ccccc1NCC(=O)c1ccc(Cl)cc1
→ -8%, nt, 6%, -10, -0.4, 7, 50µM*
- O=C(CCl)Nc1ccc(N=Nc2ccccc2)cc1
→ 15%, 1.1%, ?, nt, -1.3, -17, ?
- O=C(COC(=O)C1C2CC3OC(=O)C1C3C2)Nc1ccccc1 (stereo not given)
→ 5%, nt, 6%, -12, -13, 28, 11%
- CC1CC(NC(=O)c2c(O)nc3sccn3c2=O)CC(C)(C)C1 (stereo not given)
→ ?, 0.9%, -9%, -7, nt, -11, nt
- CCc1cc(=O)oc2cc(C)cc(OCC(=O)N[C@@H](CSCc3ccccc3)C(=O)O)c12
→ nt, 4.7%, -5%, -30, -1.2, 28, 15%
- O=C1C2C(C(=O)N1c1ccncc1)C1C=CC2C12CC2 (stereo not given)
→ 22%, 0.8%, 8%, 0, 1.4, 10, 5%
- COc1ccc([N+](=O)[O-])cc1N(CC(=O)NCCC1=CCCCC1)S(C)(=O)=O
→ -2%, -2.9%, -12%, 8, 5.3, -13, 8%
- CN(C(=O)COc1ccc2ccc(=O)oc2c1)C1CCS(=O)(=O)C1 (stereo not given)
→ 20%, 4.2%, -23%, 12, nt, -8, 9%
- O=c1c2ccccc2nc(/C=C/c2ccc(Br)cc2)n1CCO
→ 11%[15.4 µM], nt, -21%, -13, nt, nt, nt
- CCOc1ccc(OCC)c(Nc2cc(C)nc3nc(C)nn23)c1
→ -2%, -2.7%, 11%, 0, 15, 10, 0%
- CC1=CS(=O)(=O)CC1Sc1nc2ccccc2[nH]1 (stereo not given)
→ 10%, -0.1%, -1%, 7, 0.6, 7, -10%
- COc1ccc(NC(=O)c2c(NC(=O)CCC(=O)O)sc3c2CCCCC3)cc1
→ 3%, -0.7%, -10%, 7, 1.6, -5, -28%
- CN1CCN(C(CNC(=O)C(=O)Nc2ccc3c(c2)OCO3)c2ccc(F)cc2)CC1 (stereo not given)
→ 22%[15.4 µM], nt, 9%, -2, nt, -15, nt
- COc1cc([N+](=O)[O-])c2nc(C(=O)O)ccc2c1
→ -38%[inhibitor], -0.6%, -11%, -3, nt, nt, nt
- O=C(CCC(=O)OCC(=O)c1ccc(-c2ccccc2)cc1)Nc1cccc2cccnc12
→ ?, -19%, 6%, 9, 3.1, 17, -6%
- CCn1c(C)nc2cc(C(=O)OC(C(F)(F)C(F)F)C(F)(F)C(F)F)ccc21
→ 11%, 1.1%, 22µM*, -5, 11, 14, 19%
- COCc1cc(C)nc(SCC(=O)Nc2ccc3[nH]c(=O)[nH]c3c2)c1C#N
→ -2%, nt, 2%, -24, -2.3, 0, -16%
- Cn1c(SCc2nc3cc(C(=O)O)ccc3c(=O)[nH]2)nnc1C(F)(F)F
→ 6%[15.4 µM], -0.9%, 11%, 3, -0.9, -6, 1%
- c1cc2c(cc1-c1csc(NNC3=NCCCCC3)n1)OCCO2
→ 15%[15.4 µM], nt, 13%, nt, -4.0, 6, -95%
- COc1ccc(C(=O)OCC(=O)NC23CC4CC(CC(C4)C2)C3)c(OC)c1OC
→ 16%, -0.4%, -9%, 1, nt, -11, nt

Screening results as filed in PubChem.
